Source: PubChem (several laboratories)
HSV replic up: HSV replication enhancement. HSV replication augmentation in cells, fold increase. AID 1956. maximum fold increase. 220,000 compounds, 0.005% hits;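 active = peak rise of 1.5-fold or more in the series; tested in PC3 cells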;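 also: first round at 10 µM; read as green reporter fluorescence; hits show the peak of a series up to 25 µM; 1 = signal of infected wells without compound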
Insulin prom inh: TRM-6 insulin promoter activity inhibition; AID 1273; TRM-6 cells (human fetal islet line), insulin promoter-eGFP reporter, imaging; reporter expression induced with tamoxifen; 130,000 compounds, 0.9% hits; inhibition, % at 2 µM;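 active = inhibition above the mean plus 3 SD, with well images judged a real hit on visual review, cut at about 60% in these data, passing the limit was not always enough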
GALR2 agonist: agonists of human galanin receptor 2 (GALR2) | O43603 | GALR2-expressing cells, agonist activation read-out | activation, %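 (tested at 5 µM)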 | 140,000 compounds, 0.48% hits | AID 803;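 active = above mean plus 3 SD of all compounds, about 5% in these data, not always enough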;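 also: 0% = vehicle buffer wells and 100% = reference agonist at full effect; tested in CHO reporter cells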
RGS16-Gao: modulates binding between human RGS16 and Galphao; 220,000 compounds, 0.38% hits; O15492+P09471; binding response (% of control), % at 10 µM; bead-based flow cytometry RGS16-Galphao binding, fluorescence; actives lie on both sides; AID 1441;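 active = below 25% or above 175%, edge rows of some plates excepted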;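 also: Galphao activated by GDP with aluminum fluoride before binding; 100% = wells without compound and 0% = beads without RGS; some results beyond the cut were filed as inactive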
PKD1 kinase inh: PKD1 (human) kinase inhibition; PKD1 kinase fluorescence polarization assay; inhibition, %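 (about 10 µM by stock and volumes)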; 200,000 compounds, 0.056% hits;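 active = inhibition of 50% or more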;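 also: controls were vehicle for no effect and a reference inhibitor for full effect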
Target sequence (Q15139 whole entry, looked up): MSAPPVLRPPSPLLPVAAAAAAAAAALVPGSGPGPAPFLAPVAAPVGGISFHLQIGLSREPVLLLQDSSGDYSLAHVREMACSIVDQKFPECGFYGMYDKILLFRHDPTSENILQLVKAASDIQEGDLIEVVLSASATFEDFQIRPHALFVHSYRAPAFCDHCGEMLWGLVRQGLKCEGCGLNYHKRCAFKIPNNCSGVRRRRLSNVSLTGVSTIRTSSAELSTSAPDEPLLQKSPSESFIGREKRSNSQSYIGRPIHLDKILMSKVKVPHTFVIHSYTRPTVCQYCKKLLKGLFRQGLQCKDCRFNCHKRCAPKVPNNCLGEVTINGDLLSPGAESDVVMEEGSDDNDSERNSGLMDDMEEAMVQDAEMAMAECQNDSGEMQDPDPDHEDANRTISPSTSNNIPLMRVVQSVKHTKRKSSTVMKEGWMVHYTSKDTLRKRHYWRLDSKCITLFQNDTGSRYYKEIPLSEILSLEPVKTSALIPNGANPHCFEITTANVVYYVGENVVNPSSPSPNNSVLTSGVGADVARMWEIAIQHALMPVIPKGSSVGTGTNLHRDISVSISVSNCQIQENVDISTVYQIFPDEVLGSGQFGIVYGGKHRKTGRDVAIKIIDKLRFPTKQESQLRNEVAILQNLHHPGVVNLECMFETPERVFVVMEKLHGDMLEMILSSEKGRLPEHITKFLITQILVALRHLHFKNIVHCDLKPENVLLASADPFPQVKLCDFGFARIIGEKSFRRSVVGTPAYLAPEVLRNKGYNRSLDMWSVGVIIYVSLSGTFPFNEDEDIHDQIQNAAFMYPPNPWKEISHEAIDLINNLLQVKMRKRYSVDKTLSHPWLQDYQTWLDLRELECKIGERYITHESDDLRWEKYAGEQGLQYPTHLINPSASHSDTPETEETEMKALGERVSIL
Insulin prom inh cell count: second read-out of Insulin prom inh, no call of its own (marks repeat the call); normalized cell count, %; measured here: cell count, toxicity; reference of the scale not given here;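 cells exposed to compound for 48 h; stained nuclei by imaging scaled within each plate; lower means fewer cells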
HSV replic up primary fold: further read-out of HSV replic up, marked with its call; fold increase; compound at 10 µM; measured here: primary screen fold increase 10 uM; tested in PC3 cells;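 GFP signal in the first replicate; 1 = infected wells without compound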
Active calls of the source: *; i = inactive; . = not tested or not shown; & = joins results of further samples.

SMILES	HSV replic up	HSV replic up primary fold	Insulin prom inh	Insulin prom inh cell count	GALR2 agonist	RGS16-Gao	PKD1 kinase inh
COc1ccc(-c2[nH]ncc2/C=C(/C#N)C(=O)NC2CCCCCC2)cc1	i	0.57	-458	46	-0.2	95	3
O=C(CN1CCN(Cc2ccccc2F)C1=O)NCCN1CCOCC1	i	1.1	.	.	.	100	-10
Cc1ccc(NC(=O)CSc2nnc(-c3ccco3)c(-c3ccco3)n2)cc1	i	0.78	0	58	0.3	88	-6
CC(=O)N=Cc1c(C)c(C#N)c(=O)n(C)c1O	i	1.2	.	.	.	96	-6
O=C(O)C1CCCN(S(=O)(=O)c2cccc3cccnc23)C1 (stereo not drawn)	i	0.96	-70	104	-1.6	95	-4
NC(=O)CN1CCCN(S(=O)(=O)c2ccc(Br)cc2)CC1	i	0.98	23	112	-0.5	123	-5
CCN(/N=C/c1ccc(Cl)cc1)c1cc(=O)n(C)c(=O)[nH]1	i	1.3	.	.	-1.6	38	-11
O=C(Cn1cccn1)c1ccccc1	i	0.9	.	.	.	90	-5
CCSc1nnc(NC(=O)c2cc(C)on2)s1	i	1	17	85	-3.2	102	5
CCCNC(=O)c1cccc(Cn2nc(C)c(Br)c2C)c1	i	0.88	.	.	-2.5	104	-1
CN1CCN(c2ccc([N+](=O)[O-])cc2C(=O)N2CCOCC2)CC1	.	.	12	117	0.5	105	-8
Cc1noc(C(=O)NCc2ccccc2)c1Cl	i	0.81	.	.	-3.1	91	-10
COC(=O)c1cc(NC(=O)C23CCC(C)(C(=O)O2)C3(C)C)cc(C(=O)OC)c1 (stereo not drawn)	i	1	-23	102	-2.1	103	2
COCCCNC(=O)/C(C#N)=C/c1ccc(OCC(=O)O)c(OC)c1	i	1.1	.	.	-0.1	101	0
Cc1cccn2c(=O)c(C=O)c(N3CCN(c4ccccc4)CC3)nc12	i	1	.	.	.	99	-1
Cc1ccc(NC(=O)COC(=O)c2cc(-c3cccs3)nn2-c2ccccc2)cc1[N+](=O)[O-]	i	0.99	-20	95	-1.7	86	-10
CCC(C)(C(=O)NC1CCCCC1)N(C(=O)CC1NC(=O)NC1=O)c1c(C)n(C)n(-c2ccccc2)c1=O (stereo not drawn)	i	0.85	-89	129	.	104	-4
C#CCSc1nnc(-c2sc3ccccc3c2Cl)o1	.	.	16	103	0.4	65	8
O=C(O)CNC(=S)N(Cc1ccccc1F)C1CCCCC1	i	0.96	-7	73	.	100	0
Cc1ccccc1CN(c1ccc(C(=O)Nc2ccccc2C(=O)N2CCCC2)cc1)S(C)(=O)=O	i	0.9	17	130	-0.8	101	-2
CS(=O)(=O)N(CC(=O)NCc1ccc2c(c1)OCO2)c1ccc(Cl)cc1	.	.	.	.	-0.8	99	-9
C=CCn1c(SCC(=O)c2ccc(Br)cc2)nnc1C(C)NC(=O)Cc1ccc(OC)cc1 (stereo not drawn)	i	0.92	-50	100	-3.8	15	-5
COc1cc(/C=N\NC(=O)c2ccc(Cn3cc(Br)c([N+](=O)[O-])n3)o2)cc(OC)c1O	i	0.94	0	117	0.2	29	1
Cc1cc(S(=O)(=O)NC2CCCCC2)c(C)s1	i	1.3	.	.	-0.9	96	0
CCOC(=O)Cc1csc(NC(=O)COc2ccccc2)n1	i	1	-44	77	-0.7	101	-14
O=C(CSc1ccccc1)Nc1ccccc1C(=O)O	i	0.7	14	80	-2.1	98	-7
O=C(CCSc1nc(-c2ccco2)cc(C(F)(F)F)n1)NCc1ccccn1	i	1.1	-6	112	-2.4	94	-1
COc1ccc(C2=CSC(/N=C/c3ccc(F)cc3)=NN2)cc1	i	1.2	0	48	0.3	71	-9
O=C1[C@@H]2[C@@H]3C[C@@H]([C@H]4ON=C(c5ccc(OCc6ccccc6)cc5)[C@@H]34)[C@@H]2C(=O)N1c1ccc2c(c1)OCO2	i	0.96	13	112	-4.3	100	4
Cn1c(SCC(=O)N2CCN(S(=O)(=O)c3ccc(Cl)cc3)CC2)nc2ccccc21	i	0.97	.	.	-0.2	102	0
O=C(OCC(=O)N(C1CCCCC1)C1CCCCC1)c1ccncc1	.	.	.	.	-1.8	108	8
Cc1ccc(C(c2nnnn2Cc2ccccc2)N2CCN(Cc3ccccc3)CC2)cc1 (stereo not drawn)	i	0.78	15	90	-0.1	104	-4
CC(=O)Nc1ccc(NC(=O)c2cccc(-c3cc4ccccc4oc3=O)c2)cc1	i	0.83	9	112	.	107	-3
Cc1ccc2cc(CN(CCCN3CCOCC3)C(c3nnnn3Cc3ccco3)C(C)C)c(=O)[nH]c2c1C (stereo not drawn)	i	0.98	-500	29	-1.4	.	-9
COc1cccc(OCc2cc(/C=N/NC(=O)c3nc(Cl)c(Cl)c(N)c3Cl)ccc2OC)c1	i	0.76	-41	87	-1.1	105	-2
NC(=O)CC(NC(=O)Cc1ccc(Br)cc1)c1ccc(N2CCN(c3ccc(F)cc3)CC2)c([N+](=O)[O-])c1 (stereo not drawn)	i	0.75	.	.	.	105	.
Cc1c(CN2CCCCC2)c(O)n(CCCO)c(=O)c1C#N	i	1.2	.	.	0.2	106	-15
COc1cc(CNC(C)(C)CO)ccc1OCC(=O)NC(C)(C)C	i	1.1	-20	142	-0.3	107	-2
c1ccc(Oc2nc(N3CCOCC3)nc(N3CCOCC3)n2)cc1	i	1	.	.	1.1	226	-4
Nc1nc(SCC(=O)NCC2CCCO2)[nH]c(=O)c1NC(=O)c1ccco1 (stereo not drawn)	i	0.87	.	.	.	94	4
O=[N+]([O-])c1ccc(Nc2ccccn2)c([N+](=O)[O-])c1	i	0.99	.	.	.	122	-4
CC(C)(C)/C(O)=C/c1nc2ccccc2[nH]c1=O	i	1.1	.	.	0.2	104	-2
N#Cc1cnc(N)c(Br)c1	i	0.95	27	152	.	100	-2
CCNC(=S)Nc1cc(C)ccn1	i	0.9	-29	140	-0.7	91	-11
COc1ccc(CNS(=O)(=O)c2ccc(OC)cc2)cc1	i	1	6	51	-1.3	106	-4
CCCc1[nH]nc2c1C(c1ccc(OCCN3CCOCC3)c(OC)c1)C(C#N)=C(N)O2 (stereo not drawn)	i	0.88	-15	139	-1.5	96	-5
O=C(COC(=O)c1ccc(Br)cc1)Nc1ccccc1Br	i	1.1	.	.	.	96	2
NC(=O)NC(=O)COC(=O)c1ccc(Cl)c(S(=O)(=O)N(Cc2ccccc2)c2ccc(Cl)cc2)c1	i	0.93	23	129	0.1	105	-6
Nc1nc(NC(=O)CCCC(=O)O)nn1-c1ccccc1	i	1	.	.	-0.5	101	-4
C/C=C/C(=O)OCC(=O)Nc1ccc(C)c(S(=O)(=O)N(C)C)c1	i	1	-20	132	.	97	-10
CC(=O)c1cccc(NC(=O)c2csc(-n3nc(C)cc3C(F)(F)F)n2)c1	i	0.93	29	75	-2.0	99	-5
N#Cc1cc(-c2ccccc2)nnc1Oc1ccccc1Cl	i	1	14	152	-2.0	103	-5
COc1cc(C(=O)O)c([N+](=O)[O-])c(OC)c1OC	i	1.1	.	.	.	102	.
CCOc1ccc(S(=O)(=O)NCc2ccncc2)cc1	i	0.95	42	150	-4.1	102	5
O=C(COC(=O)c1ccc([N+](=O)[O-])o1)c1ccccc1	i	0.94	-25	109	-2.6	106	7
COc1ccc(CCNC(=O)Cn2cnc3c(nnn3Cc3ccc(C)cc3)c2=O)cc1OC	i	1	-31	107	0.1	98	0
COc1cccc(N2C(=O)c3ccncc3C2=O)c1	.	.	0	139	-0.2	99	-5
COc1ccc(C(=O)OCC(=O)NCC2CCCO2)cc1 (stereo not drawn)	i	1.1	64	53	.	118	-2
Cc1ccn2c(C(=O)CSc3ccc(Cl)cc3)c(C)nc2c1	i	0.86	30	109	-1.8	85	5
CCOc1ccc(NC(=O)Cn2c(=O)oc3ccccc32)cc1	i	1	7	122	-1.2	101	0

The listing continues.
SMILES	HSV replic up	HSV replic up primary fold	Insulin prom inh	Insulin prom inh cell count	GALR2 agonist	RGS16-Gao	PKD1 kinase inh
Cc1ccc(Cn2c(SC3CCOC3=O)nc3ccccc3c2=O)cc1 (stereo not drawn)	i	0.9	.	.	-1.1	86	-6
COc1ccc(NC(=S)NCc2cccs2)c(OC)c1	i	0.97	-30	103	-0.1	43	7
CN1CCN(NC(=O)c2ccccc2F)CC1	i	0.93	-19	101	-1.3	96	-5
COC(=O)c1ccccc1NC(=O)N1CCN(c2ccccc2F)CC1	i	1	.	.	.	109	7
CN(C)c1ccc(/C=N/NC(=O)c2ccccc2O)o1	i	0.99	-14	104	.	107	6
CCc1cn(S(=O)(=O)c2ccccc2OC)nc1N	i	0.93	9	121	-1.0	99	2
CCOC(=O)c1ccc(N=c2sc(C(=O)OC)cc(=O)n2CCCN2CCOCC2)cc1	i	0.82&0.63	.	.	-1.1	103&117	-13
Cc1nn(CCCC(=O)Nc2nccs2)c(C)c1[N+](=O)[O-]	i	0.92	-43	81	.	104	-3
CC(C)(C)c1ccc(/C=N/NC(=O)c2ccccn2)cc1	i	0.99	.	.	.	108	-2
COc1ccc(OCC(=O)NNC(=O)c2cccc(S(=O)(=O)N(C)C)c2)cc1	i	0.86	.	.	-1.6	103	-3
Cc1ccccc1CSCc1nc2ccccc2[nH]1	i	1.1	.	.	0.3	112	-8
Cc1cnc(NC(=O)COc2cccc3c2OC(C)(C)C3)s1	i	0.93	11	49	-2.1	110	2
CCN1CCN(CCOc2ccccc2OCc2ccccc2)CC1	i	0.95	.	.	.	98	-3
Cc1ccc(S(=O)(=O)NCc2ccc(C(=O)NCc3cccnc3)cc2)cc1	i	0.95	36	52	.	119	13
COc1ccc([N+](=O)[O-])cc1NC(=O)C(C)Sc1ccc(C)cc1 (stereo not drawn)	i	0.9	.	.	0.2	102	0
O=C(Cc1ccc(S(=O)(=O)N2CCCC2)s1)N1CCN(c2ccccc2)CC1	i	1.9	-127	100	.	104	-1
Cc1c(OCc2ccc(C(=O)O)cc2)ccc2c(-c3ccccc3)cc(=O)oc12	i	1.2	.	.	.	99	.
COc1ccccc1N1CCN(Cc2ccc(OC)c(OC)c2OC)CC1	i	1.1	.	.	0.7	110	1
O=C(OCc1ccc([N+](=O)[O-])cc1)c1ccccn1	i	0.99	30	102	.	106	-7
CCCCCC(=O)N/N=C/c1cc(Br)c(O)c(OC)c1	i	0.98	25	140	-0.1	217	7
CCOC(=O)Cc1csc(NC(=O)COc2cc(C)cc(C)c2)n1	i	0.98	-48	67	.	106	-8
CCOC(=O)Nc1nc(C)c(C(=O)N(C)C)s1	i	0.91	19	78	1.5	106	-3
Cc1cccc2nc(-c3ccco3)c(Nc3ccc4c(c3)OCO4)n12	i	1.1	.	.	.	104	2
CCOCCCn1c(=NC(=O)c2cccs2)c(C#N)cc2c(=O)n3cccc(C)c3nc21	i	0.97	.	.	.	102	.

Compounds shown so far with bromine, in the order listed:
SMILES	HSV replic up	HSV replic up primary fold	Insulin prom inh	Insulin prom inh cell count	GALR2 agonist	RGS16-Gao	PKD1 kinase inh
NC(=O)CN1CCCN(S(=O)(=O)c2ccc(Br)cc2)CC1	i	0.98	23	112	-0.5	123	-5
CCCNC(=O)c1cccc(Cn2nc(C)c(Br)c2C)c1	i	0.88	.	.	-2.5	104	-1
C=CCn1c(SCC(=O)c2ccc(Br)cc2)nnc1C(C)NC(=O)Cc1ccc(OC)cc1 (stereo not drawn)	i	0.92	-50	100	-3.8	15	-5
COc1cc(/C=N\NC(=O)c2ccc(Cn3cc(Br)c([N+](=O)[O-])n3)o2)cc(OC)c1O	i	0.94	0	117	0.2	29	1
NC(=O)CC(NC(=O)Cc1ccc(Br)cc1)c1ccc(N2CCN(c3ccc(F)cc3)CC2)c([N+](=O)[O-])c1 (stereo not drawn)	i	0.75	.	.	.	105	.
N#Cc1cnc(N)c(Br)c1	i	0.95	27	152	.	100	-2
O=C(COC(=O)c1ccc(Br)cc1)Nc1ccccc1Br	i	1.1	.	.	.	96	2
CCCCCC(=O)N/N=C/c1cc(Br)c(O)c(OC)c1	i	0.98	25	140	-0.1	217	7

More entries:
SMILES	HSV replic up	HSV replic up primary fold	Insulin prom inh	Insulin prom inh cell count	GALR2 agonist	RGS16-Gao	PKD1 kinase inh
Cc1cc(NC(=O)COc2ccc(Cl)cc2Cl)n(-c2ccccc2)n1	i	0.92	-12	42	-3.6	89	-8
CCn1c(=O)c2c(nc3n2CCCN3CCc2ccccc2)n(C)c1=O	i	1.1	-17	56	-0.2	108	-14
COc1ccc(C(=O)NCC(=O)Nc2ccccc2)cc1OC	i	1	-146	127	-1.3	99	-3
Fc1ccc(/C=C\c2nccc3c2[nH]c2ccccc23)cc1	i	0.77	.	.	.	99	-3
